Bioassay records from PubChem BioAssay.
HCMV NEC inh = inhibitors of HCMV UL50-UL53 interaction, biochemical, HTRF; HCMV UL50-UL53 nuclear egress complex (human cytomegalovirus); normalized percent inhibition; inhibition, % (test concentration not listed); 190,000 tested, 0.15% active;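 active = both replicates at 50% or more, plus weaker picks with an unusually low signal ratio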;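 also: stock transfer was 100 nL into about 20 µL; 0% = negative control wells and 100% = wells with untagged competitor protein; inactives centre near -12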
Sa growth 42C = S. aureus growth inhibition at 42 and 30 °C, primary screen, LtaS inhibitor project, RN4220, two temperatures. OD600, 20 h, 42 °C; active compounds read low. relative growth, % (concentration not given with the values). 170,000 tested, 0.53% active;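 active = growth at 42 °C up to 50% and 20 or more points under that at 30 °C, or under 10% at both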;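 also: 300 nL library stock went into each well; scaled to the means of positive and negative controls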
GIV Gai3 FP = inhibitors of GIV peptide binding to Galpha-i3, primary screen, biochemical, fluorescence polarization, FITC-GIV GBA peptide, rat Galphai3; Guanine nucleotide-binding protein G(i) subunit alpha-3 (Rattus norvegicus), P08753; 90 min; active compounds read low; scaled: aluminum fluoride 0%, vehicle 100%; percent of control (FP), % (test concentration not listed); 210,000 tested, 0.42% active; AID 1224905, 2016;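 active = replicate mean at 85% of control or lower, very high polarization wells dropped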;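 also: lower values mean more displacement of the GIV peptide from Galpha-i3; wells of about 15 µL received 100 nL stock; the first replicate is given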
Target sequence (P08753 whole entry, looked up): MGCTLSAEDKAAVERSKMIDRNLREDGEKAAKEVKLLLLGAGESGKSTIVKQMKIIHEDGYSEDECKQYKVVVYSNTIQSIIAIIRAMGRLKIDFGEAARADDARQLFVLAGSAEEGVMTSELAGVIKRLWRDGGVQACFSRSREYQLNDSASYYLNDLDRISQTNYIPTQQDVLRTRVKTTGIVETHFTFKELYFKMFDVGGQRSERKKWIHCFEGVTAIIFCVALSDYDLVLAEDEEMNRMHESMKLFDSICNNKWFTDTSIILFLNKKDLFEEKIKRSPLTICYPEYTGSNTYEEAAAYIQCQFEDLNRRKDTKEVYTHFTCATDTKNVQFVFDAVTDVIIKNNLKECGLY
Sa growth 42C second temp = further read-out of Sa growth 42C, marked with its call; relative growth, %; measured here: growth at 30 °C;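 optical density after 20 h as mean of two plates; 100% = untreated growth and lower means inhibition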
An asterisk follows results filed as active; . = not tested or not shown; & = joins results of further samples.

SMILES | HCMV NEC inh | Sa growth 42C | Sa growth 42C second temp | GIV Gai3 FP
COc1ccc(CCC(=O)NC2CC(=O)N(c3ccc(F)cc3)C2)cc1 (stereo not given) | . | 100 | 96 | 97
Cc1cc(C)cc(-n2nnc(-c3nc(-c4ccc5c(c4)OCO5)no3)c2C)c1 | . | 99 | 90 | 107
CN1CCCc2cc(CN)ccc21 | 0 | 90 | 43 | 69*
CC1Cc2ccccc2N1C(=O)CCC(=O)N1CCCN(c2ccc(=O)n(-c3ccccc3)n2)CC1 (stereo not given) | -23 | . | . | 97
Cc1ccc(NC(=O)/C=C2/SC(=O)N(CN3CCCCC3)C2=O)cc1 | . | 69 | 70 | 96
Cc1cc2nc(Oc3ccccc3)c3ccccc3n2n1 | -19 | 91 | 90 | .
CCOC(=O)c1nc(Nc2ccccc2Cl)c2c(C)noc2n1 | 4 | . | . | 106
CCSc1nc2ccccc2c(=O)n1C1CCCC1 | -15 | 99 | 72 | 101
Cc1ccc(CNC(=O)c2n[nH]c3c2CCCC3)cc1 | -2 | 107 | 95 | 109
Cc1ccc(N2C(=O)c3ccc(-c4nc5ccccc5o4)cc3C2=O)cc1C | -21 | 98 | 103 | 104
CCn1cnc(S(=O)(=O)N2CCCC(C(=O)NC(C)C)C2)c1 (stereo not given) | 3 | . | . | 100
C=C1C(C(=O)NCC2CCCO2)C1C(=O)NCC1CCCO1 (stereo not given) | 24 | 94 | 102 | .
CC(C)C(=O)N1N=C2CCCCC2C1(O)C(F)(F)F (stereo not given) | . | 90 | 96 | 112
C/C(=N\O)C(=O)c1ccc(-c2ccccc2F)cc1 | -27 | 83 | 89 | 102
COc1ccc(N2CCN(c3ncnc4sc(C(=O)NCc5ccco5)c(C)c34)CC2)cc1 | -19 | . | . | 105
Cc1c(C(=O)O)nnn1-c1ccccc1 | -11&-28 | 96 | 107 | 100&101
O=C(O)c1ccccc1-c1ccccc1C(=O)Nc1c[nH]c(=O)[nH]c1=O | -2 | 101 | 90 | 98
CN(C1CCCCC1)S(=O)(=O)N1CCCC(C(=O)NCCCc2ccccc2)C1 (stereo not given) | -36 | 112 | 90 | 109
COc1ccc(-n2ccnc2SCC(=O)Nc2nnc(C)s2)cc1 | . | 105 | 95 | 100
O=C1NC2(CCCCC2)C(=O)N1CN1CCCC1c1ccc2c(c1)OCCCO2 (stereo not given) | -32 | 104 | 85 | .
O=C(COc1ccccc1)Nc1ncc2c(n1)CCCC2=O | -7 | 117 | 98 | 113
CC(C)(CO)NC(=O)C12CC3CC(CC(Cl)(C3)C1)C2 | -26 | 87 | 87 | .
Cc1cc(NS(=O)(=O)c2cc(Cl)sc2Cl)no1 | -15 | 73 | 79 | 100
COc1ccccc1OCCSc1nc(-c2ccccc2)c(-c2ccccc2)[nH]1 | . | 119 | 88 | 103
Cc1c(C2=CCN(S(=O)(=O)Cc3ccccc3)CC2)c2ccccc2n1CC(=O)N1CCCC1 | -12 | 119 | 97 | 112
O=C(CCCN1C(=O)c2cccnc2Oc2ccccc21)NCc1ccc2c(c1)OCO2 | 1 | . | . | 97
COc1ccccc1-c1nnc(C2CCN(C(=O)c3ccccc3C)CC2)o1 | -34 | 96 | 86 | 105
O=C(Nc1nnc(SCc2cc(=O)n3cc(Cl)ccc3n2)s1)c1cccc(F)c1 | . | 102 | 84 | 102
CCOc1ccc(C(=O)NCC(c2ccc(Cl)cc2)N2CCCCC2)cc1 (stereo not given) | -25 | 95 | 81 | 103
O=C1NN=C2CC34CCC12CC3=NNC4=O | -20 | 101 | 96 | .
COc1ccccc1-c1nc2c(c(SCC(=O)Nc3c(C)cc(C)cc3C)n1)Cc1c(CO)cnc(C)c1O2 | . | 107 | 92 | 107
N#CC1=C(N)n2c(nc3ccccc32)NC1c1ccc(Cl)cc1 (stereo not given) | . | 91 | 74 | 108
CC1(c2ccccc2)OC(=O)C(C#N)C12CCCCC2 (stereo not given) | 10 | 113 | 129 | 97
COc1ccc(CNC(=O)C2CCN(S(=O)(=O)c3ccc4c(c3)CCCN4C(C)=O)CC2)cc1 | . | 124 | 88 | 98
O=C(O)/C=C/C(=O)NC1CCN(c2nccc(C(F)(F)F)n2)CC1 | -8 | 110 | 90 | 108
CN(C)c1cc(N)c2c(n1)CCC2 | 1 | 106 | 93 | 100
OCC(O)CN1CCc2ccccc21 (stereo not given) | 7 | 89 | 92 | 102
CCC1CN(C(=O)N2CCC(C(=O)NCc3ccccc3F)CC2)c2ccccc2O1 (stereo not given) | -2 | 114 | 89 | 105
COc1cc(/C=N/NC(=O)c2cc(-c3cccn3C)n[nH]2)cc(OC)c1OC | -62 | -0.2* | 0.5* | 100
Cc1cc(NC(=O)c2ccc3c(c2)OCO3)cc(-c2nc3ncccc3o2)c1O | -27 | . | . | 108

Structures above with a CF3 group, in the order listed:
SMILES | HCMV NEC inh | Sa growth 42C | Sa growth 42C second temp | GIV Gai3 FP
CC(C)C(=O)N1N=C2CCCCC2C1(O)C(F)(F)F (stereo not given) | . | 90 | 96 | 112
O=C(O)/C=C/C(=O)NC1CCN(c2nccc(C(F)(F)F)n2)CC1 | -8 | 110 | 90 | 108

More structures:
SMILES | HCMV NEC inh | Sa growth 42C | Sa growth 42C second temp | GIV Gai3 FP
CCCCN(CCCNC(=O)c1c(C)oc2nc[nH]c(=O)c12)Cc1ccccc1 | -8 | 87 | 88 | 105
COc1ccc(N2CCn3c(SCc4ccccc4F)nnc32)cc1 | -12 | . | . | 103
CCOc1ccc(-c2nc(COC(=O)c3cccc(-n4cnnn4)c3)cs2)cc1OC | -21 | 90 | 83 | .
Cc1ccc(SCc2cc(=O)[nH]c(N3CCN(c4ccccc4)CC3)n2)cc1 | 5 | . | . | 102
Nc1ncnc(N2CCc3ccccc32)n1 | -31 | 99 | 62 | 103
Cc1oc(-c2ccc(Cl)cc2)nc1CN1CCCC(C(=O)NCc2ccccc2)C1 (stereo not given) | -34 | 103 | 91 | 107
CCN(Cc1ccccc1)C(=O)c1cccc(C#N)c1 | -16 | 80 | 91 | .
CCn1c(C(=O)O)c(CC(=O)Nc2nc3ccc(OC)cc3s2)c2ccccc21 | -22 | . | . | 100
COc1cccc(NC(=O)CCSc2nnc3ccc4ccccc4n23)c1 | . | 112 | 98 | 101
Cc1c(Cl)c(O)c(Cl)c(C)c1N(S(=O)(=O)c1ccccc1)S(=O)(=O)c1ccccc1 | . | 87 | 77 | 100
CC(C)CCNC(=O)CCc1nc2sc3c(c2c(=O)[nH]1)CCCCC3 | -2 | . | . | 103
COC(=O)C1=C(Nc2ccccc2NS(=O)(=O)c2cn(C)cn2)CSC1 | -28 | 91 | 87 | 101
Cc1cccc(-n2ncc3c(N4CCN(c5ccccc5)CC4)ncnc32)c1 | . | 100 | 106 | 110
COc1ccc(S(=O)(=O)N2CCc3cc4ccc(C)cc4nc32)c(OC)c1 | -3 | . | . | 94
CC(/C=N/N=C1\SC(CC(=O)Nc2ccc(Cl)cc2)C(=O)N1Cc1ccco1)=C\c1ccccc1 (stereo not given) | 1 | 90 | 84 | .
COc1ccc(NC(=O)C2CCN(C(=O)c3ccc(-c4noc(C)n4)cc3)CC2)c(OC)c1 | -23 | . | . | 100
CC1CCc2nc3ncn(Cc4cccc(F)c4)c(=O)c3cc2C1 (stereo not given) | . | 94 | 88 | 102
N#CC1C(c2ccccc2F)C(C(N)=O)C(=O)NC1(O)c1ccccc1 (stereo not given) | -4 | 118 | 101 | 109
Cc1ccc(C)c(OC(=O)CCN2C(=O)C3CC=CCC3C2=O)c1C (stereo not given) | -5 | 110 | 94 | .
O=C(c1cnn(C(=O)C2CC2)c1)c1cc(Cl)ccc1O | -13 | 105 | 81 | .
CN(Cc1ccccc1)C(=O)c1cc2c(s1)-c1ccccc1OC2 | . | 117 | 96 | 105
CN(C)Cc1cc(CN(C)C)c(O)c(CN(C)C)c1 | -6 | 98 | 108 | 99
CCn1c(=O)cc(SCC(=O)NCCN2CCN(Cc3ccccc3)CC2)c2ccccc21 | . | 83 | 80 | 101
Cc1noc(C)c1COC(=O)c1cccc(S(=O)(=O)N(C)C2CCCCC2)c1 | -2 | 115 | 90 | .
CCc1ccccc1NC(=O)Cn1c(=O)n(Cc2ccc3c(c2)OCO3)c(=O)c2ccccc21 | -1 | 86 | 86 | 107
Cc1ccc(C(=O)Cn2c(=N)sc3cc(C)ccc32)cc1 | -51 | 73 | 76 | .
CC(C)c1nn2c(=O)cc(COC(=O)c3ccccc3NC(=O)c3cccs3)nc2s1 | . | 96 | 90 | 105
O=C(Nc1n[nH]c(C(F)(F)F)n1)c1ccco1 | -5&-19 | 99&77 | 85&89 | .
Cc1cc(SCC(=O)Nc2nc(C)c(C(=O)OCC(C)C)s2)ncn1 | -14 | . | . | 104
CCc1ccc(N2CC(c3nnc(NC(=O)c4ccco4)s3)CC2=O)cc1 (stereo not given) | -13 | 94 | 84 | 97
O=C(CN1C(=O)c2cccc3cccc1c23)N/N=C/c1ccncc1 | -55 | 91 | 80 | .
CC1C=CCC2C(=O)N(c3cccc(C(=O)O)c3)C(=O)C12 (stereo not given) | -17 | 106 | 89 | 108
O=C(NCc1cccc(Cl)c1)c1cccn1-c1cccnc1 | -30 | . | . | 105
COc1cccc(-c2cc(C(=O)NC3CCCC3)on2)c1 | -7 | 98 | 78 | 105
Cc1occc1C(=O)Nc1cccc(-c2nn[nH]n2)c1 | 6 | 89 | 93 | 104
CCCCN(C)CC(O)Cn1cc(/C=C/C(=O)c2ccc(OCC)cc2)c2ccccc21 (stereo not given) | -23 | 44 | 0 | 116
CCOC(=O)c1cc(-c2ccc(S(=O)(=O)N(C)CC3COc4ccccc4O3)s2)on1 (stereo not given) | -31 | 97 | 93 | 100
O=C(O)CC1SC(N2CCCC2)=NC1=O (stereo not given) | -8 | 75 | 90 | 103
COc1ccc(NC(=O)c2oc3ccccc3c2NC(=O)c2cc(=O)c3c(C)cc(C)cc3o2)cc1 | -30 | 102 | 83 | 102
O=C(CN1C(=O)/C(=C\c2ccccc2)Oc2ccccc21)NC1CCCCC1 | . | 89 | 88 | 107
CCOC(=O)c1c(NC(=O)Cc2coc3ccc(OC)cc23)sc(C)c1C | 6 | . | . | 110
Cn1c(SCC(=O)NCc2ccc(Cl)cc2)nnc1-c1ccc(Cl)cc1 | -31 | 106 | 80 | .
COc1ccc(N2CCN(C(=O)c3csc4c3CCCCC4)CC2)cc1 | -12 | 80 | 64 | 96
COc1cc(Cl)c(NC(=O)CN(C)S(=O)(=O)c2ccc3c(c2)CCCC(=O)N3)c(OC)c1 | . | 98 | 88 | 106
CC(C)c1ccc(OCC(=O)N(Cc2ccc(N(C)C)cc2)C2CCS(=O)(=O)C2)cc1 (stereo not given) | -23 | 111 | 87 | 102
O=C(Cn1cc(C(F)(F)F)cc(Cl)c1=O)NC1CC1 | -16 | 80 | 86 | .
CC(C)N(Cc1ccccc1)c1ncnc2c1nnn2C | . | 104 | 85 | 95&109
O=C(O)C1CCCN(S(=O)(=O)c2ccc(-c3ccc(=O)[nH]n3)s2)C1 (stereo not given) | -103 | 93 | 94 | 101
COCCN1CSC(=S)N(Cc2ccco2)C1 | -10 | 28 | 0 | 108
CCOC(=O)N1CCC2(CC1)C(C#N)=C(C)Nc1oc(C)nc12 | -8 | 120 | 69 | .
Cc1cc(C)c2c(=O)n(CC(=O)N3CCCCC3)sc2n1 | 2 | 100 | 92 | 124
CC(/C=C1\SC(=S)N(CCC(=O)N2CCN(C)CC2)C1=O)=C\c1ccccc1 | . | 84 | 96 | 105
Cn1c(SCc2nc3sc4c(c3c(=O)[nH]2)CCCC4)nnc1C(F)(F)F | -10 | 98 | 86 | .
Nc1cc(C(F)(F)F)ccc1Oc1ccc(Br)cc1 | -13 | 97 | 92 | .
COc1ccc2cc(CNc3ccc(C)cc3)c(=O)n(CC(=O)NCCc3ccccc3)c2c1 | -6 | . | . | 109
CCOc1ccc(N(CC)C(=O)C2CCN(S(=O)(=O)c3cccc4nonc34)CC2)cc1 | 0 | 110 | 90 | 104
Cc1nc(N2CCCC2)ncc1C(=O)Nc1ccc(F)cc1F | . | 97 | 95 | 105

7 entries from above, with values under each structure.
Each structure is followed by: HCMV NEC inh	Sa growth 42C	Sa growth 42C second temp	GIV Gai3 FP
- CCOC(=O)c1c(NC(=O)Cc2coc3ccc(OC)cc23)sc(C)c1C
  6	.	.	110
- Cc1nc(N2CCCC2)ncc1C(=O)Nc1ccc(F)cc1F
  .	97	95	105
- Cn1c(SCc2nc3sc4c(c3c(=O)[nH]2)CCCC4)nnc1C(F)(F)F
  -10	98	86	.
- CCOc1ccc(N(CC)C(=O)C2CCN(S(=O)(=O)c3cccc4nonc34)CC2)cc1
  0	110	90	104
- CCOC(=O)N1CCC2(CC1)C(C#N)=C(C)Nc1oc(C)nc12
  -8	120	69	.
- Nc1cc(C(F)(F)F)ccc1Oc1ccc(Br)cc1
  -13	97	92	.
- COc1ccc(N2CCN(C(=O)c3csc4c3CCCCC4)CC2)cc1
  -12	80	64	96

2 records picked at random from the list so far, as already listed:
SMILES | HCMV NEC inh | Sa growth 42C | Sa growth 42C second temp | GIV Gai3 FP
COc1cc(Cl)c(NC(=O)CN(C)S(=O)(=O)c2ccc3c(c2)CCCC(=O)N3)c(OC)c1 | . | 98 | 88 | 106
Cn1c(SCC(=O)NCc2ccc(Cl)cc2)nnc1-c1ccc(Cl)cc1 | -31 | 106 | 80 | .
